UCH37 DUB inh: inhibitors of human deubiquitinating enzyme UCH37. Q9Y5K5. purified proteasome/UCH37, Ub-AMC cleavage fluorescence. inhibition, % (concentration not given with the values). 0.33% of 330,000 active;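 active means mean of two replicates above 20%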;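 further: 0% = compound-free wells with enzyme and 100% = wells lacking proteasome; stock transfer was 100 nL into about 20 µL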
Target sequence (Q9Y5K5 whole entry, looked up): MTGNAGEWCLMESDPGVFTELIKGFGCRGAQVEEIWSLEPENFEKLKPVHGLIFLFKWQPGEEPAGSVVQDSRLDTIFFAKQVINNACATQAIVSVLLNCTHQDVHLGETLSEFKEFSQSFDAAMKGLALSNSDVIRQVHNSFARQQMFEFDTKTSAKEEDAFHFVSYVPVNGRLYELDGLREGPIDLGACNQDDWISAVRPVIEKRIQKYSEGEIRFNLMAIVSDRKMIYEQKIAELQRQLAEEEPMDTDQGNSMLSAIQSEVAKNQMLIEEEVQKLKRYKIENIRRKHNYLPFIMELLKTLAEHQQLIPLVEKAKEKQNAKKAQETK
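Material: Human UCH37 enzyme supplied as purified proteasome complex | Schedule: 30 min preincubation with enzyme, 25 min cleavage at room temperature | Detection: AMC fluorescence 355/460 nm | Measure: % inhibition of Ub-AMC cleavage fluorescence | Controls: Wells without proteasome as full block, compound-free enzyme plus substrate as uninhibited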
AF4-AF9 inh: inhibitors of human MLL-AF4/AF9 interaction | P42568 | AlphaScreen, biotin-AF4 peptide binding to FLAG-AF9 | inhibition, % at 10 µM | 0.47% of 350,000 active;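 active means every replicate reaching a set inhibition limit, whatever the replicate mean, cut at about 25% in these data; inconclusive means mean inhibition reaches that limit but some replicates miss it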;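 further: 0% = plate neutral control median and 100% = total signal loss; the record names both 10 and 1 µM as test concentration; the first replicate is given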
Target sequence (P42568 whole entry, looked up): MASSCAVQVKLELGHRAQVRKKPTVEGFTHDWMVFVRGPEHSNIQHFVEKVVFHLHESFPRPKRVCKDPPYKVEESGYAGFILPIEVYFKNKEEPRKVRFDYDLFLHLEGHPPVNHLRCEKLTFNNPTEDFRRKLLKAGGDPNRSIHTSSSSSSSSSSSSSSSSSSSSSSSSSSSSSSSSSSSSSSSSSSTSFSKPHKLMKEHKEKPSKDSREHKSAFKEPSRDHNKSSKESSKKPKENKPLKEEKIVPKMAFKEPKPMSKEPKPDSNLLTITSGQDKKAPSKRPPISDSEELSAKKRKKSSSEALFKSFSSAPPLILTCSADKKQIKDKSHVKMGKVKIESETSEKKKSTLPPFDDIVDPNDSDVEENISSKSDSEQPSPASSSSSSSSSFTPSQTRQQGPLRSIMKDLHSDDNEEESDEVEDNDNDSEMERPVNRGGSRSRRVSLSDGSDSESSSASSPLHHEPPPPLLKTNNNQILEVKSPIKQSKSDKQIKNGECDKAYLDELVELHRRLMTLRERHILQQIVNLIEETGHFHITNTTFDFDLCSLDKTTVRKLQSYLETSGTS
T cruzi repl: blocks replication of Trypanosoma cruzi; T. cruzi beta-gal in NIH3T3, luminescence, 90 h; inhibition, % (test concentration not listed); 1.4% of 300,000 active;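 active means mean inhibition across valid replicates above about 55%, limit read from the data; inconclusive means mean below that limit but half or more replicates reach it; inactive means mean below it, under half of replicates reach it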;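 further: signal also drops with host cell toxicity which is not excluded here; 0% = plate median of DMSO wells and 100% = zero luminescence signal; higher percent means less beta-gal luminescence so fewer parasites; stock transfer was 50 nL into about 50 µL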
Beta apoptosis: blocks beta cell apoptosis; INS-1E cytokine-induced death, ATP luminescence, 48 h; percent of positive-control rescue, neutral wells zero; protection from apoptosis, % (concentration not given with the values); 0.8% of 300,000 active; AID 435005;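 active means all replicates at 75% or more, or half of them and the mean; inconclusive means half reach 75% but not the mean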;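 further: 0% = cytokine-treated negative control wells and 100% = positive control rescue; higher means more ATP so stronger rescue from cytokine killing; wells of about 40 µL received 100 nL stock; the first replicate is given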
rRNA inh HTS: inhibits bacterial ribosomal RNA function over humanized ribosomes | 1.6% of 350,000 active | E. coli WT GFP vs humanized-ribosome RFP mutants, fluorescence, 24 h; active compounds read low; DMSO median 0, no signal -100 | GFP signal change (wild-type ribosome), % (no concentration beside the values);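 active means significant combined selectivity score with lowered wild-type GFP, culture density cut under 30%, mutant RFP and density less affected; inactive means any of these conditions unmet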; further: one replicate is shown; some compounds called inactive have numbers as strong as hits
Bfl-1 A1 inh: inhibitors of the anti-apoptotic protein A1, read as caspase activation; MEF A1-2A-BIM cells, Caspase-Glo 3/7 luminescence, 3 h; percent of clofoctol response, vehicle zero; caspase activation, % (test concentration not listed); 0.066% of 330,000 active; AID 2462;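 active means over half of replicate activation scores above 10%, or exactly half above 10 with the replicate mean above 10; inconclusive means replicate mean below 10 yet half the replicates above 10; inactive means over half of replicates below 10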;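 further: wells of about 30 µL received 50 nL stock; many hits fall short of the cut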
FGF22 binding: binders of recombinant human FGF22 by thermal shift; Q9HCT0; SYPRO orange fluorescence; percent of sucrose octasulfate shift, DMSO zero; calls only at 9.99 µM; 1.5% of 340,000 active;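 active means melting point raised past a set limit in the mean and every replicate; inconclusive means no clear call; three in four hits are not shown here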
Target sequence (Q9HCT0 whole entry, looked up): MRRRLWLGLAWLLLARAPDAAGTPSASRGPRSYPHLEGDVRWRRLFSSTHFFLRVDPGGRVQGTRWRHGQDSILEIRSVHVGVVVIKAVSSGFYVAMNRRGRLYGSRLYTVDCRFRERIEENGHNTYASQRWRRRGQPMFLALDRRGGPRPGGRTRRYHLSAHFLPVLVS
E coli growth: inhibitors of Escherichia coli growth. OD600 absorbance (test concentration not listed). 0.21% of 330,000 active. AID 1053175. OD600, 23 h; active compounds read low;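 active means OD600 absorbance below the run mean of sample wells minus 3.6 SD, in any replicate, cut at about 0.56 in these data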;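 further: stock transfer was 300 nL into about 60 µL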
rRNA inh HTS OD600: also measured in rRNA inh HTS; calls as there; OD600 change, %; measured here: OD600 growth;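 optical density of the mix in the first replicate; 0 = DMSO median and -100 = no signal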
rRNA inh HTS RFP: second read-out of rRNA inh HTS, no call of its own (marks repeat the call); RFP signal change, %; measured here: RFP humanized mutant strains;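 first replicate; 0 = DMSO median and -100 = no signal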
An asterisk follows results filed as active; i = inactive; u = inconclusive; x = not tested or not shown. This is a subset (hit frequency here may not be typical).

SMILES	UCH37 DUB inh	AF4-AF9 inh	T cruzi repl	Beta apoptosis	rRNA inh HTS	rRNA inh HTS OD600	rRNA inh HTS RFP	Bfl-1 A1 inh	FGF22 binding	E coli growth
CCCCn1c(N)c(N(CCC(C)C)C(=O)c2sc3nc4n(c(=O)c3c2C)CCC4)c(=O)[nH]c1=O	1.4	-1.7	-3.7	-0.9	14.6	19.1	0.5	0.4	i	0.726
CN1CC2CCCC3(C1)C(=O)NC1(CCCCC1)N=C23 (centres undefined)	0.8	0.3	-19.9	-6.5	x	x	x	-0.2	x	0.743
COc1ccc(NS(=O)(=O)c2cc3c(cc2C)N(C)CCO3)cc1	3.2	9.5	2.0	-9.8	0.2	-7.9	2.4	1.0	i	0.806
COc1ccc(C(=O)Nc2nc3ccccc3s2)cc1	-0.3	12.7	5.5	x	-45.0	-58.5	-4.3	-6.7	i	0.659
CC1=C(NCCc2ccccc2)CCC1=O	2.7	x	4.2	1.2	x	x	x	-0.3	x	0.755
Cc1ccc(-n2c(SCC(=O)Nc3cccc(S(N)(=O)=O)c3)nc3ccccc32)cc1	2.3	x	-17.3	1.5	x	x	x	0.0	x	0.715
Cc1nccn1CC(=O)N/N=C/c1ccccc1O	x	-0.4	-13.1	-1.0	6.7	7.3	16.0	1.1	i	x
COc1ccc(-c2nnc(SCC(=O)N3CCCc4ccccc43)o2)cc1OC	4.0	x	-9.8	-2.5	x	x	x	-0.2	x	0.685
CCCCN(CCCC)CCNC(=O)c1cn(CC)c2ccc(S(=O)(=O)N3CCCC3)cc2c1=O	7.8	2.7	12.6	-0.9	6.8	12.1	0.7	-0.1	i	0.745
CN(c1ccccc1)C(c1ccc(F)cc1)c1nnnn1CC1CCCO1 (centres undefined)	1.2	x	-10.1	-3.2	x	x	x	-0.5	x	0.631
CCCCn1c(N)c(N(CC)C(=O)c2cc(CC)c(C)s2)c(=O)[nH]c1=O	0.0	-1.6	-11.8	-6.6	9.0	10.1	2.4	0.0	i	0.671
CCn1c(=O)c(C(=O)CN2CC(C)OC(C)C2)c(N)n(Cc2ccccc2)c1=O (centres undefined)	2.0	x	-12.0	-3.8	x	x	x	-0.1	x	0.66
CC1=C(C/C=C(\C)CCCC(C)CCCC(C)CCCC(C)C)C(=O)c2ccccc2C1=O (centres undefined)	1.3	-3.0	x	-8.9	-4.0	-4.1	9.2	-0.5	i	x
Cc1ccc(-n2c(SCC(=O)Nc3ccc4c(c3)OCO4)nnc2-c2ccccn2)cc1	-0.6	x	7.7	-0.2	x	x	x	0.1	x	0.767
O=C(NCCc1c[nH]c2ccccc12)c1ccc(S(=O)(=O)NCc2ccco2)cc1	1.4	x	-1.3	-1.8	x	x	x	0.8	x	0.699
CC(Oc1ccc2c3c(c(=O)oc2c1)CCC3)C(=O)N[C@@H](Cc1ccccc1)C(=O)O (some centres undefined)	-25.0	-2.2	-2.8	1.1	x	x	x	0.0	i	0.672
Cc1ccc(OCC(=O)NNC(=O)C2CCCO2)c(C)c1 (centres undefined)	1.5	-0.2	-0.8	-8.7	11.1	12.5	1.1	-0.3	i	0.623
c1ccc(-c2nc3ccccc3o2)nc1	0.0	x	-3.3	0.5	x	x	x	-5.0	x	0.703
COc1cc(/C=C/C(=O)O)cc(S(=O)(=O)N2CCc3ccccc3C2)c1OC	1.1	-1.2	-17.3	-2.1	-16.4	-3.5	1.6	-0.2	x	0.669
COc1ccc(COc2cc(-c3cccc(OC)c3)nc3ccc(NC(=O)c4ccc(Cl)cc4)cc23)cc1	-1.6	-1.4	8.3	9.3	2.5	13.2	1.1	2.1	i	0.718
CC(NC(=S)NC1CCCCC1)C(c1cccs1)N1CCOCC1 (centres undefined)	-1.4	-22.9	1.4	2.7	-3.6	-14.9	-5.1	-0.8	i	0.692
CC1(C)Cc2ccccc2-c2nnc(-c3ccccn3)n21	-2.6	-0.4	-4.0	-0.7	7.5	10.1	-5.3	0.0	i	0.746
Cc1cccc(NC(=O)Cn2c(=O)n(CCc3c[nH]c4ccccc34)c(=O)c3cccnc32)c1	4.1	-0.3	24.8	13.7	-4.7	-3.4	-2.8	0.8	i	0.751
Cc1cccc(N(C(=O)CNC(=O)c2ccco2)C(C(=O)NC2CCCC2)c2cccnc2)c1C (centres undefined)	-1.4	-1.2	-4.6	-11.1	2.2	5.0	-1.7	u	i	0.721
Cc1[nH]c2ccccc2c1C(=O)NS(=O)(=O)Nc1ccc(F)cc1	1.1	2.4	-4.5	x	9.5	8.6	3.7	-0.2	i	0.655
N#CCCN(Cc1cccnc1)C(=S)Nc1ccccc1Cl	-0.5	-4.2	x	x	0.6	2.9	-1.0	x	i	0.647
O=C(CC(=O)Nc1ccc(Cl)cc1Cl)Nc1ccc(Cl)cc1Cl	5.6	-1.4	0.0	1.5	12.9	17.6	1.9	-0.9	i	0.713
C/C(=C\c1ccccc1F)C1Nc2cccc3cccc(c23)N1	0.8	9.0	x	5.2	-5.6	17.4	6.6	-0.6	i	x
CN(C)c1nc(N)nc(CSc2nc3cc(Cl)ccc3o2)n1	2.4	x	15.8	-15.0	x	x	x	0.8	x	0.673
COc1cc(/C=N/N2CCCCC2)cc([N+](=O)[O-])c1O	x	2.3	-1.1	1.5	0.2	8.4	0.4	-0.6	i	x
Cc1ccc(CN2CC(C(=O)NCCCn3nc(C)cc3C)CC2=O)cc1 (centres undefined)	1.8	-9.7	x	x	2.8	10.4	-0.2	x	i	0.681
CN(C)S(=O)(=O)N1CCC(Oc2ccc(C(=O)N3C[C@@H]4CCC[C@H]3C4)cc2)CC1	4.4	-0.8	4.5	6.5	-6.9	-4.2	1.4	1.5	i	0.7
COc1ccc(Br)c(C(=O)OCC(=O)NC2CC2)c1	4.6	-2.6	x	-3.5	7.2	8.1	1.7	0.5	i	0.731
CCCn1c(CN2CCN(c3cccc(Cl)c3)CC2)nc2c1c(=O)n(C)c(=O)n2C	5.5	-3.0	-7.0	3.2	-6.5	-16.1	-4.4	-0.7	i	0.681
CCOC(=O)N1CCN(Cc2nc3cc(NC(=O)c4cccs4)ccc3n2CC)CC1	4.8	1.9	9.9	2.3	-6.4	-20.6	-0.9	1.3	i	0.688
CN(C(=O)c1ccc(Br)o1)C1(C)CCS(=O)(=O)C1 (centres undefined)	0.7	0.1	-2.3	-1.6	19.2	14.2	-0.6	-1.5	i	0.716
Cn1c(SCC(=O)NCc2cccs2)nnc1-c1ccncc1	1.7	x	-12.2	-7.2	x	x	x	0.7	x	0.699
O=C(CSc1nc2ccccc2c(=O)n1CC1CCCO1)Nc1ccccc1 (centres undefined)	0.4	1.6	21.7	2.0	-0.4	8.9	-2.1	0.6	i	0.632
O=C(COC(=O)c1cc(S(=O)(=O)N2CCCC2)ccc1O)Nc1ccc(F)cc1F	-10.3	0.6	x	-10.6	12.6	15.1	1.4	-0.4	i	0.695
COc1ccc(Nc2nc(N3CCOCC3)nc(N3CCOCC3)n2)cc1	2.2	-8.9	22.8	-1.1	13.7	6.5	-0.4	0.2	i	0.716
O=c1c2ccccc2nc(SCc2ccncc2)n1CC1CCCO1 (centres undefined)	5.7	5.1	8.5	-2.9	-20.0	-11.2	-5.4	1.1	i	0.673
COc1ccccc1Nc1ccc(C(=O)NC2CCCCC2)cn1	-0.7	-9.0	6.7	-0.6	16.8	6.8	1.4	0.2	i	0.637
CC1(C)CC(=O)C(CC2=C(N)CC(C)(C)CC2=O)=C(N)C1	-3.4	0.5	-0.8	-4.9	12.9	6.6	-8.1	0.4	i	0.668
COC(=O)C(C)n1cnc2c(nnn2-c2ccc(C)cc2)c1=O (centres undefined)	1.2	-4.6	-10.7	-9.6	0.8	2.6	-2.6	-0.5	i	0.709
COc1cc(OC)cc(C(=O)N(CCCN2C(=O)c3cccc4cccc(c34)C2=O)c2cccc(OC)c2)c1	1.9	4.6	8.5	6.2	7.0	-1.3	-1.9	0.2	i	0.738
CC(C)(C)OC(=O)[C@H](Cc1ccccc1)NC(=O)c1nc[nH]c1C(=O)N[C@@H](Cc1ccccc1)C(=O)OC(C)(C)C	1.1	1.6	40.2	30.6	33.0	7.8	-6.0	-1.0	i	x
O=C(NN1C(=O)c2ccccc2C1=O)C1CCCCC1	5.3	x	-4.5	-4.1	x	x	x	0.2	x	0.7
O=C(NCCN1CCOCC1)C1CC(=O)N(c2cccc(C(F)(F)F)c2)C1 (centres undefined)	0.0	-3.7	x	x	7.3	9.5	-0.9	x	i	0.646
O=C(Cn1nc(-c2ccccc2)oc1=O)OCC(=O)c1ccc(F)c(F)c1	0.7	-2.3	x	-7.5	7.2	16.7	-1.0	0.1	i	0.646
COc1ccccc1C(=O)NCc1ccc(-c2nc3ccccc3s2)cc1	-2.1	x	0.4	-1.0	x	x	x	0.4	x	0.715
CCCOc1cccc(C(=O)N/N=C/c2ccoc2)c1	x	1.8	10.0	-9.2	0.4	-2.0	-2.3	0.2	i	x
Nc1nnc(-c2ccccc2)s1	3.2	x	-8.4	0.4	x	x	x	-0.3	x	0.661
CCOc1ccccc1N(CC(=O)NCC1CCCO1)C(=O)CNS(=O)(=O)c1ccccc1 (centres undefined)	3.4	-0.3	-8.9	0.8	8.4	7.2	-0.1	-0.4	i	0.71
COC(=O)C1=C(O)/C(=C\c2ccc(CNS(=O)(=O)c3ccccc3)o2)N=C1C	6.2	x	1.9	0.2	x	x	x	2.9	x	0.672
O=C1CCCN1CCCNc1ccc(S(=O)(=O)N2CCCCC2)cn1	-2.3	x	0.5	-7.1	x	x	x	0.6	x	0.669
C#CCN1c2ccccc2Sc2cccnc21	-0.6	-2.4	16.7	4.5	15.7	-1.2	1.3	-1.4	i	0.665
C=CCN1C(=O)c2ccc(C(=O)N3CCC(C(=O)OCC)CC3)cc2C1=O	-1.0	0.5	x	x	13.9	8.5	1.2	x	i	0.694

By substructure: the entries above containing a Cl atom (5)
SMILES	UCH37 DUB inh	AF4-AF9 inh	T cruzi repl	Beta apoptosis	rRNA inh HTS	rRNA inh HTS OD600	rRNA inh HTS RFP	Bfl-1 A1 inh	FGF22 binding	E coli growth
COc1ccc(COc2cc(-c3cccc(OC)c3)nc3ccc(NC(=O)c4ccc(Cl)cc4)cc23)cc1	-1.6	-1.4	8.3	9.3	2.5	13.2	1.1	2.1	i	0.718
N#CCCN(Cc1cccnc1)C(=S)Nc1ccccc1Cl	-0.5	-4.2	x	x	0.6	2.9	-1.0	x	i	0.647
O=C(CC(=O)Nc1ccc(Cl)cc1Cl)Nc1ccc(Cl)cc1Cl	5.6	-1.4	0.0	1.5	12.9	17.6	1.9	-0.9	i	0.713
CN(C)c1nc(N)nc(CSc2nc3cc(Cl)ccc3o2)n1	2.4	x	15.8	-15.0	x	x	x	0.8	x	0.673
CCCn1c(CN2CCN(c3cccc(Cl)c3)CC2)nc2c1c(=O)n(C)c(=O)n2C	5.5	-3.0	-7.0	3.2	-6.5	-16.1	-4.4	-0.7	i	0.681
